Ecoli rRNA inh – inhibitors of bacterial rRNA selective over humanized ribosomes; E. coli WT GFP vs humanized-ribosome RFP mutants, fluorescence, 24 h; active compounds read low; DMSO median 0, no signal -100; GFP signal change (wild-type ribosome), % (concentration not given with the values); actives 1.6% (n = 350,000); AID 720706;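 active = significant combined selectivity score with lowered wild-type GFP, culture density cut under 30%, mutant RFP and density less affected; inactive = any of these conditions unmet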; note: one replicate is shown; some compounds called inactive have numbers as strong as hits
UCH37 inh – human UCH37 deubiquitinating enzyme inhibition. actives 0.33% (n = 330,000). inhibition, % (test concentration not listed). purified proteasome/UCH37, Ub-AMC cleavage fluorescence. Q9Y5K5;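 active = mean of two replicates above 20%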;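 note: 0% = compound-free wells with enzyme and 100% = wells lacking proteasome; stock transfer was 100 nL into about 20 µL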
Target sequence (Q9Y5K5 whole entry, looked up): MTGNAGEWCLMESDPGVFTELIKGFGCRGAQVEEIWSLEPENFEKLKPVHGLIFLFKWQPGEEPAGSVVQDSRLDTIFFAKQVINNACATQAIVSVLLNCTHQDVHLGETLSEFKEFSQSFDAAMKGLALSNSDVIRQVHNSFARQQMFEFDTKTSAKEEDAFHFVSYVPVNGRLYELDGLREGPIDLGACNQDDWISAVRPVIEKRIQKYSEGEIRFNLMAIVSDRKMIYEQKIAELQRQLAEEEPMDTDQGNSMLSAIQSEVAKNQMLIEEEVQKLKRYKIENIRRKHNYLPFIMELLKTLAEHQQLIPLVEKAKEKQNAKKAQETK
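Material: Human UCH37 enzyme supplied as purified proteasome complex | Schedule: 30 min compound-proteasome preincubation then 25 min substrate reaction, room temperature | Detection: AMC fluorescence from Ub-AMC cleavage, excitation 355 nm, emission 460 nm | Benchmarks: Wells without proteasome as full block, compound-free enzyme plus substrate as uninhibited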
T cruzi repl – blocks replication of Trypanosoma cruzi; T. cruzi beta-gal in NIH3T3, luminescence, 90 h; inhibition, % (no concentration beside the values); actives 1.4% (n = 300,000);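 active = mean inhibition across valid replicates above about 55%, limit read from the data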;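 note: signal also drops with host cell toxicity which is not excluded here; 0% = plate median of DMSO wells and 100% = zero luminescence signal; higher percent means less beta-gal luminescence so fewer parasites; stock transfer was 50 nL into about 50 µL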
FGF22 binding – binders of recombinant human FGF22 by thermal shift; SYPRO orange fluorescence; percent of sucrose octasulfate shift, DMSO zero; calls only at 9.99 µM; actives 1.5% (n = 340,000);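 active = melting point raised past a set limit in the mean and every replicate; three in four hits are not shown here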
Target sequence (Q9HCT0 whole entry, looked up): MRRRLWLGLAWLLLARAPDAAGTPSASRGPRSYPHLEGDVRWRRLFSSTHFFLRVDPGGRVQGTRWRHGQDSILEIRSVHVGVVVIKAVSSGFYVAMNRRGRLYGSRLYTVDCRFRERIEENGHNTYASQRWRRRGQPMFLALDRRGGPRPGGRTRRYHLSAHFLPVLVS
Beta cell apopt – blocks beta cell apoptosis; INS-1E cytokine-induced death, ATP luminescence, 48 h; percent of positive-control rescue, neutral wells zero; protection from apoptosis, % (test concentration not listed); actives 0.8% (n = 300,000); AID 435005;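 active = all replicates at 75% or more, or half of them and the mean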;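 note: 0% = cytokine-treated negative control wells and 100% = positive control rescue; higher means more ATP so stronger rescue from cytokine killing; wells of about 40 µL received 100 nL stock; the first replicate is given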
Ecoli growth – blocks Escherichia coli growth; OD600, 23 h; active compounds read low; OD600 absorbance (test concentration not listed); AID 1053175; actives 0.21% (n = 330,000);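 active = OD600 absorbance below the run mean of sample wells minus 3.6 SD, in any replicate, cut at about 0.56 in these data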;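 note: stock transfer was 300 nL into about 60 µL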
MLL AF4-AF9 inh – MLL-AF4/AF9 protein interaction inhibition; P42568; AlphaScreen, biotin-AF4 peptide binding to FLAG-AF9; inhibition, % at 10 µM; actives 0.47% (n = 350,000);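 active = every replicate reaching a set inhibition limit, whatever the replicate mean, cut at about 25% in these data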;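 note: 0% = plate neutral control median and 100% = total signal loss; the record names both 10 and 1 µM as test concentration; the first replicate is given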
Target sequence (P42568 whole entry, looked up): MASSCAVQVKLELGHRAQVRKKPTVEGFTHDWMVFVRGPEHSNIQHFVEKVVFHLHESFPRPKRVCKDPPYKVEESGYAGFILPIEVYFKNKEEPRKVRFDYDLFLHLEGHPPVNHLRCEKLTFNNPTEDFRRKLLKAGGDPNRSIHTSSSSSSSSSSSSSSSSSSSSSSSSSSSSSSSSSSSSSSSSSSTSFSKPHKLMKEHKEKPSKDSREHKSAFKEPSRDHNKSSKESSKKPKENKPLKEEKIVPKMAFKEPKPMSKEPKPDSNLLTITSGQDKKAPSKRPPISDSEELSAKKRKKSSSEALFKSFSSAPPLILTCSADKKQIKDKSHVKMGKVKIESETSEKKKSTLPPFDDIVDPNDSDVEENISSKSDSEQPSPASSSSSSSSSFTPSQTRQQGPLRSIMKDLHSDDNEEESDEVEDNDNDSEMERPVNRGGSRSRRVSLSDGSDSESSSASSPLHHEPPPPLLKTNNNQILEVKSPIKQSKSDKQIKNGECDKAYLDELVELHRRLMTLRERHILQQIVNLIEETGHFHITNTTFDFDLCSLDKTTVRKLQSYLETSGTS
Bfl-1 A1 inh – inhibitors of the anti-apoptotic protein A1, read as caspase activation. MEF A1-2A-BIM cells, Caspase-Glo 3/7 luminescence, 3 h; percent of clofoctol response, vehicle zero. caspase activation, % (test concentration not listed). actives 0.066% (n = 330,000). AID 2462;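 active = over half of replicate activation scores above 10%, or exactly half above 10 with the replicate mean above 10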;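 note: wells of about 30 µL received 50 nL stock; many hits fall short of the cut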
Ecoli rRNA inh OD600 – recorded beside Ecoli rRNA inh, whose call it bears; OD600 change, %; measured here: OD600 growth;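 optical density of the mix in the first replicate; 0 = DMSO median and -100 = no signal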
Ecoli rRNA inh RFP – also measured in Ecoli rRNA inh; calls as there; RFP signal change, %; measured here: RFP humanized mutant strains;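 first replicate; 0 = DMSO median and -100 = no signal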
* hit, by the source's call; i = inactive; / = no result given. An excerpt; rates above refer to the full screens.

SMILES | Ecoli rRNA inh | Ecoli rRNA inh OD600 | Ecoli rRNA inh RFP | UCH37 inh | T cruzi repl | FGF22 binding | Beta cell apopt | Ecoli growth | MLL AF4-AF9 inh | Bfl-1 A1 inh
CCCOc1ccc2c(=O)c(-c3cc(C(=O)OC)oc3C)c(C)oc2c1 | -12 | -12 | 4.6 | -0.1 | 2 | i | 6 | 0.69 | -69 | 0.7
CC(=O)N1c2ccccc2C(C)=CC1(C)C | 19 | 20 | 4.4 | 2.1 | -5 | i | -1 | 0.63 | 1.0 | 0.1
CCC(C)c1ccc(OCC(=O)Nc2ccc3c(c2)C(=O)NC3=O)cc1 (centres undefined) | -5 | -3 | 3.8 | / | -11 | i | 2 | / | -5.2 | -0.5
COc1ccc(CCNC(=O)CC2C(=O)NCCN2CC(C)(C)C)cc1 (centres undefined) | 13 | 4 | 1.0 | -2.1 | -12 | i | -3 | 0.7 | -1.7 | -0.4
O=C(Cc1ccc(Cl)cc1)N/N=C/c1cccs1 | -4 | -10 | 1.7 | / | -8 | i | -6 | / | -12 | -0.7
COc1ccc(NC(=O)COC(=O)c2ccc(S(=O)(=O)N(C)c3ccccc3OC)cc2)cc1OC | 2 | 3 | 7.9 | 1.8 | 13 | i | -1 | 0.73 | -1.1 | -0.3
CSc1ccccc1NC(=O)CN(C)C(=O)Cc1c(F)cccc1Cl | -1 | -2 | -1.9 | 1.0 | -7 | i | 1 | 0.69 | 1.3 | 1.1
N#CC(Cc1cccc(CC(C#N)(c2ccccc2)c2ccccc2)c1)(c1ccccc1)c1ccccc1 | 8 | 4 | 4.4 | -0.1 | 33 | i | 20 | 0.76 | -0.2 | 1.4
CN(C(=O)COC(=O)c1n[nH]c(=O)c2ccccc12)c1ccccc1 | 6 | 2 | -4.0 | 1.0 | / | i | -1 | 0.73 | -2.8 | -0.3
CCCN(CCC)c1nc(-c2ccccn2)nc2ccccc12 | -57 | -81 | -18 | 2.0 | 58* | i | 135* | 0.59 | -19 | 1.1
N#Cc1cc2c(nc1SCC(N)=O)CCCCC2 | / | / | / | -1.1 | -5 | / | -9 | 0.71 | / | -1.3
COc1ccc(NC(=O)Cc2c(O)c3ccccc3[nH]c2=O)cc1 | / | / | / | -1.2 | -5 | / | 2 | 0.67 | / | 0.5
CCCCCCc1nc(C(N)=O)c2[nH]c(=O)n(-c3ccc(OCC)cc3)c2n1 | / | / | / | -15 | 13 | / | 0 | 0.7 | / | -0.5
Cc1ccc(CNC(=O)CCS(=O)(=O)c2ccc(Br)s2)cc1 | / | / | / | 3.3 | -10 | / | -8 | 0.69 | / | 0.4
COc1ccc(NS(=O)(=O)c2cccc(-c3n[nH]c(=S)n3Cc3ccccc3)c2)cc1 | -38 | -52 | -2.7 | 1.5 | 2 | i | -1 | 0.74 | -5.1 | 0.7

One compound at a time (already shown). Screens in order: Ecoli rRNA inh, Ecoli rRNA inh OD600, Ecoli rRNA inh RFP, UCH37 inh, T cruzi repl, FGF22 binding, Beta cell apopt, Ecoli growth, MLL AF4-AF9 inh, Bfl-1 A1 inh
COc1ccc(NC(=O)COC(=O)c2ccc(S(=O)(=O)N(C)c3ccccc3OC)cc2)cc1OC is entered as 2, 3, 7.9, 1.8, 13, i, -1, 0.73, -1.1, -0.3
CC(=O)N1c2ccccc2C(C)=CC1(C)C is entered as 19, 20, 4.4, 2.1, -5, i, -1, 0.63, 1.0, 0.1

The listing continues.
SMILES | Ecoli rRNA inh | Ecoli rRNA inh OD600 | Ecoli rRNA inh RFP | UCH37 inh | T cruzi repl | FGF22 binding | Beta cell apopt | Ecoli growth | MLL AF4-AF9 inh | Bfl-1 A1 inh
O=C(COC(=O)c1ccccc1O)NC(=O)c1ccc(OC(F)F)cc1 | 6 | 12 | -3.5 | -13 | / | i | -1 | 0.69 | -1.0 | -0.5
COc1ccc(CCNC(=O)CSc2nnc(-c3ccccc3)o2)cc1OC | / | / | / | 4.9 | -5 | / | 0 | 0.68 | / | -0.2
Cc1ccc(NC(=S)NC(=O)C2CCCC2)c(Br)c1 | -45 | -74 | -8.3 | 1.7 | / | i | 4 | 0.67 | 0.5 | -1.0
COc1ccccc1N1CCN(C(=O)c2c(C)noc2C)CC1 | 4 | -2 | -2.2 | 0.2 | 3 | i | -7 | 0.69 | 1.8 | 0.1
CCOCCCNC(=O)c1ccc(CS(=O)(=O)Cc2ccccc2F)o1 | / | / | / | 3.1 | 3 | / | -4 | 0.68 | / | -0.2
CCc1ccccc1NC(=O)c1cc(-c2ccc(F)cc2)on1 | 18 | 17 | 7.3 | -3.1 | 8 | i | 2 | 0.7 | -3.8 | 0.5
CCCCOc1ccc(Cn2c(=O)oc3ccccc32)cc1 | 7 | 1 | -0.5 | 3.9 | 0 | i | -4 | 0.71 | -1.7 | -0.5
COC(=O)c1sccc1NC(=O)c1c(C)cc(=O)oc1C | / | / | / | 0.2 | -14 | / | -5 | 0.71 | / | 0.0
CCOc1ccc(-n2c(SCC(=O)Nc3cc(C)on3)nc3c(c2=O)SCC3)cc1 | 0 | -1 | -1.4 | 1.0 | -5 | i | -4 | 0.68 | 1.1 | 0.0
CC1CCN(c2ccc(C(=O)NCc3ccco3)cc2[N+](=O)[O-])CC1 | / | / | / | 5.5 | 3 | / | 1 | 0.68 | / | -0.1
O=C(Nc1cnc2ccccc2c1)c1ccncc1 | 2 | 12 | -0.7 | 4.8 | -12 | i | / | 0.7 | -9.4 | -4.1
CC(OC(=O)c1cccc(N(C)C)c1)C(=O)N1CCc2ccccc2C1 (centres undefined) | -6 | -20 | -10 | -21 | / | i | -1 | 0.68 | 6.1 | -0.4
O=C(c1ccco1)N1CCN(C(=O)C2CCN(S(=O)(=O)c3cccc4nsnc34)CC2)CC1 | 3 | 2 | 6.8 | 2.5 | 0 | / | -4 | 0.77 | / | -0.7
COc1ccc(CNC(=O)COC(=O)c2cccnc2Nc2cccc(C(F)(F)F)c2)cc1 | / | / | / | -12 | 1 | / | 9 | 0.77 | / | -0.2
COc1ccccc1NC(=O)Cn1nnc(C(=O)NCc2ccc3c(c2)OCO3)c1N | 3 | -14 | 1.2 | 0.7 | 1 | i | / | 0.65 | -0.6 | -0.2
O=C(COc1ccc(Cl)cc1)Nc1ccc2c(c1)C(=O)NC2=O | 3 | 11 | 2.6 | -1.5 | -1 | i | -14 | 0.75 | -0.8 | 0.7
CCOc1cc(CO)cc(Br)c1OCC(=O)O | / | / | / | 2.7 | -13 | / | -5 | 0.8 | / | -1.3
CC1CCN(c2ccc(NC(=O)c3cccnc3)cc2)CC1 | / | / | / | 1.7 | 6 | / | 7 | 0.65 | / | -4.2
CCCc1cc(C(=O)N2CCC(n3nccc3NC(=O)c3ccc(OC)cc3)CC2)no1 | 3 | 5 | -1.1 | 5.1 | 6 | i | 0 | 0.66 | -3.4 | 0.0
CC1CCCN(C2=C(NS(=O)(=O)c3ccc(Cl)cc3)C(=O)c3ccccc3C2=O)C1 (centres undefined) | -24 | -26 | 2.7 | 6.4 | 10 | i | 23 | 0.76 | -3.7 | -1.0
CC1CCN(C(c2cc3cc4c(cc3[nH]c2=O)OCO4)c2nnnn2CC2CCCO2)CC1 (centres undefined) | 27 | 11 | 2.3 | -114 | 6 | i | -2 | 0.73 | -11 | 1.6
Nc1ncnc(N)c1N=Nc1ccccc1 | 9 | 8 | -0.7 | 9.4 | 22 | i | -9 | 0.65 | -2.5 | 2.1
c1nc(NCc2ccc3c(c2)OCO3)c2cc(-c3ccoc3)ccc2n1 | -4 | -1 | 11 | -0.4 | / | i | -10 | 0.65 | 2.4 | 1.6
COc1ccccc1OCCNC(=O)c1cccs1 | / | / | / | 1.5 | -15 | / | -2 | 0.72 | / | 0.2
COc1ccc(CN(C)C(=O)c2ccc(OCC(=O)N3CCOCC3)c(OC)c2)cc1 | 3 | 5 | 0.4 | -0.2 | / | i | 0 | 0.66 | -1.3 | -0.2
Cc1ccc(S(=O)(=O)N2CCc3ccccc3C2)cc1 | -8 | -19 | 1.9 | 0.1 | 3 | i | -1 | 0.68 | -5.4 | -0.1
Cc1c(NC2=NC(C)(C)Cc3ccccc32)c(=O)n(-c2ccccc2)n1C | / | / | / | -1.6 | -11 | / | -2 | 0.74 | / | 0.4
Cc1cc(C)cc(N(CC(=O)NCc2ccccc2Cl)S(=O)(=O)c2c(C)[nH]c(=O)[nH]c2=O)c1 | -47 | -66 | -13 | -0.3 | 1 | i | 2 | 0.69 | -3.3 | 0.3
CCc1c(O)nc(SCC(=O)Nc2ccccc2C)n(-c2ccc(C)cc2)c1=O | -1 | 7 | 1.1 | 2.4 | -7 | i | -12 | 0.69 | 0.2 | 0.6
O=C(COc1ccc(C2SCCS2)cc1)Nc1ccc(Cl)cc1 | 4 | 2 | 1.4 | 2.4 | -13 | i | 1 | 0.66 | 2.0 | -0.1
CC(C)c1ccc(S(=O)(=O)N2CCC(C(=O)NCc3ccco3)CC2)cc1 | 0 | 0 | -1.3 | -0.3 | / | i | / | 0.69 | -7.0 | /
Cc1c(OCC(=O)N2C[C@H]3C[C@@H](C2)c2cccc(=O)n2C3)ccc2c3c(c(=O)oc12)CCCC3 | / | / | / | -17 | 10 | i | 1 | 0.68 | -13 | 0.5
c1csc(C2CCCN2c2nc3nonc3nc2NC2CC2)n1 (centres undefined) | 13 | 4 | 1.2 | 9.1 | 5 | i | -6 | 0.68 | 1.3 | -0.6
CC1(C)CC(=O)C2=C(C1)N(Cc1ccc(F)cc1)C(=O)C2(NC(=O)c1cccnc1)C(F)(F)F (centres undefined) | / | / | / | 2.0 | 2 | / | 0 | 0.7 | / | 0.1
CCN(CC)CCOc1ccc(C=NNc2nc3c([nH]2)c(=O)n(C)c(=O)n3C)cc1 | 3 | 0 | -0.3 | 5.5 | / | i | / | 0.68 | -5.2 | /
CC1(c2ccccc2Cl)NC(=O)N(CC(=O)Nc2ccccc2OC(F)F)C1=O (centres undefined) | -5 | -8 | -1.0 | 5.4 | -2 | i | -1 | 0.66 | 0.9 | -0.3
CCOC(=O)N1CCN(S(=O)(=O)c2ccc(C(=O)Nc3nc4c(s3)CC(C)CC4)cc2)CC1 (centres undefined) | / | / | / | -134 | -5 | / | 38 | 0.66 | / | -0.1
CCc1cc(C)cc(OCCOc2ccccc2/C=N/NC(C)=O)c1 | -3 | -1 | -1.3 | / | -15 | i | 1 | / | 1.1 | 0.1
CCOC(=O)N1CCN(CC(O)c2ccccc2)CC1 (centres undefined) | 7 | 0 | -4.5 | 2.2 | -4 | i | 1 | 0.7 | -15 | -0.2
O=C(NC1CCSc2ccccc21)c1ccc(F)cc1 (centres undefined) | 7 | 5 | -1.2 | 4.6 | -1 | i | / | 0.73 | -2.9 | -0.8
CC(=O)Nc1ccc2nc(CN3CCN(Cc4ccc(F)cc4)C(CCO)C3)ccc2c1 (centres undefined) | 4 | 2 | 2.5 | -15 | -5 | i | 2 | 0.69 | 1.1 | 0.4
COc1ccc(S(N)(=O)=O)cc1C(=O)OCC(=O)N1CCCC(C)C1 (centres undefined) | 6 | 10 | -4.5 | 1.9 | / | i | 1 | 0.66 | -14 | -0.1
O=S(=O)(CCS(=O)(=O)c1ccccc1)c1ccccc1 | 3 | 9 | -1.0 | 0.3 | / | i | / | 0.69 | -0.2 | /
N/C(=N\OC(=O)c1ccc(Cl)cc1)c1ccccn1 | -8 | -16 | -2.4 | 2.1 | 2 | / | 21 | 0.73 | / | -15

Screens deposited in PubChem BioAssay by several laboratories.
